Menin MLL FP FL: menin-MLL binding inhibition, fluorescein peptide; 290,000 tested, under 10 active; AID 1766; Fluorescence polarization, fluorescein-MLL peptide displacement from menin; FP activity change, % at 61.4 µM; inconclusive = falling polarisation curve, or a change in total fluorescence; inactive = total fluorescence flat and polarisation flat or rising; no compound was filed as active; the % refers to the polarisation; negative = inhibition;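 further: % of control where 0% means no effect; inhibitors lower the polarisation; unlabelled MLL peptide was the positive control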
PINK1 expr mod: modulators of PINK1 expression; PINK1 immunofluorescence, high-content cytometry, 24 h; Potency, µM (top dose mostly 76.6 µM), without a hit: at the top dose activation (PINK1 increase), actives largely listed as activators; 410,000 compounds, 0.2% hits; AID 624263; active = well fitted activation curve with a large enough effect; inconclusive = small, poorly fitted or top-dose-only effect; inactive = flat fitted curve, though single readings scatter; cell line not stated here;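 further: potency means the concentration at half of the fitted maximal effect; % of control where 0% means no effect; nearly all actives have a fitted effect of over 65% in size; a mitochondrial uncoupler was the plate control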
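A stable cell line was treated with compounds at 5 concentrations for 24 hours, with CCCP as control. PINK1 levels and mitochondrial localization were measured by immunofluorescence with mitochondrial, cell and nuclear markers after fixation, read by laser-scanning cytometry.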
Sfp PPTase inh: blocks B. subtilis Sfp PPTase activity. Biochemical Sfp PPTase activity, qHTS. Potency, µM, inactives show max response, negative = inhibition, hits mostly inhibitors. 310,000 compounds, 3.5% hits; active means well fitted inhibition curve with a large enough effect; inconclusive means small, poorly fitted or top-dose-only effect, or another doubt; inactive means no such curve, though single readings can be large or run the other way;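 further: the enzyme is Sfp with the accession as filed and its product quenches rhodamine fluorescence; potency means the concentration at half of the fitted maximal effect; 0% = enzyme reaction without inhibitor and -100% = no enzyme wells; top concentration of the series not given in the record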
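Sfp 15 nM + cpd, 15 min RT; start w/ rhodamine-CoA 5 uM, BHQ-2-YbbR 12.5 uM (final); 50 mM Hepes pH 7.6, 10 mM MgCl2, 0.01% NP-40, 0.01% BSA; read 525/598 nm at 0 and 30 min.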
gsp antagonist: antagonists of gsp mutant (McCune-Albright syndrome); gsp-mutant cells, cAMP HTRF, 30 min; control for the full effect not named in the record; Potency, µM (series often up to 76.9 µM), for inactives: at the top dose activity change, negative = inhibition, hits mostly inhibitors; 340,000 compounds, 0.4% hits; AID 624288; active = falling curve of any shape with a large fitted effect; inconclusive = falling curve, mostly with a smaller effect; inactive = flat or rising curve; cell line not stated here;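 further: intracellular cAMP measured with PDE inhibitor Ro 20-1724 present during compound exposure; potency means the concentration at half of the fitted maximal effect; on the % scale 0 is the no-effect control and ±100 the full control effect; nearly all actives have a fitted effect of over 65% in size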
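HTRF cAMP measurement after 30 min RT detection following 30 min, 37C compound treatment alongside […] (added as 300 uM solution) in G418-selected cells seeded at 2000/well and grown 16–24 h.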
gsp ag: gsp mutant agonism. 340,000 compounds, 0.13% hits. gsp mutant cells, cAMP HTRF, 30 min; control for the full effect not named in the record. Potency, µM (highest dose often 76.9 µM), for the others: at the top dose activation (cAMP increase), hits mostly activators; active = well fitted activation curve with a large enough effect; inconclusive = small, poorly fitted or top-dose-only effect, or another doubt; inactive = no such curve, though single readings can be large or run the other way; cell line not stated here;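 further: phosphodiesterase inhibitor Ro 20-1724 added with compounds to block cAMP breakdown; potency means the concentration at half of the fitted maximal effect; nearly all actives have a fitted effect of over 60% in size; about a fifth of the inactives were tested at one dose only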
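Cells in DMEM/10% FBS with G418 were pretreated with compounds in DMSO plus […] (300 uM stock) for 30 min at 37C. cAMP was measured by HTRF (cAMP-d2 plus anti-cAMP antibody-K) after 30 min at room temperature.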
D2 agonist: activates the human D2 dopamine receptor. AID 624465. activation, % (concentration not given with the values). 360,000 compounds, 0.084% hits. DiscoveRx PathHunter D2 beta-arrestin, luminescence, 90 min; 100% = 57 uM dopamine signal. P14416; in the data active = activation above about 40%; inconclusive = about 15% to 40%; inactive = below about 15%; further: the text of the record calls up to 30% inactive
Target sequence (P14416 whole entry, looked up): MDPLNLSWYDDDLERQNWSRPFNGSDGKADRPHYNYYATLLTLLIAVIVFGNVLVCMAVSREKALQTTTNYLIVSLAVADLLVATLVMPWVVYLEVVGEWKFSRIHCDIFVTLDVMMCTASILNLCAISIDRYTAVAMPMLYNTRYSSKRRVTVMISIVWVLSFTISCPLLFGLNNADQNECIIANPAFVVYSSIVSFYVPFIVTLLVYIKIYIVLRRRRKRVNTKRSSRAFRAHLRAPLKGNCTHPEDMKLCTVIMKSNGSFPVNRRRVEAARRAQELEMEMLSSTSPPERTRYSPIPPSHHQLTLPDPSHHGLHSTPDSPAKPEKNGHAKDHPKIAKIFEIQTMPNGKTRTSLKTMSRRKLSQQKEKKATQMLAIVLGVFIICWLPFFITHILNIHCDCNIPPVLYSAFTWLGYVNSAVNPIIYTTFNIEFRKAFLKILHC
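Agonist mode: compounds alone added to overnight-plated D2 PathHunter cells for 90 min at 37 C, with 57 uM final dopamine (EC100) defining full response. Beta-arrestin recruitment detected by chemiluminescent reagent, read after 1 h at ambient temperature.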
ClpP mod: qHTS Assay for Activators of ClpP. Potency, µM (top dose mostly 57.5 µM), without a hit: at the highest dose activity change, negative = active. purified B. subtilis ClpP, FRET peptide cleavage, 20 min. 340,000 compounds, 1.9% hits; active = well fitted falling curve with a large enough effect; inconclusive = small, poorly fitted or top-dose-only effect; inactive = no such curve, though single readings can be large or run the other way; further: potency means the concentration at half of the fitted maximal effect; the source files actives as falling curves though it sought activators and does not explain the sign; nearly all actives have a fitted effect of over 65% in size; many hits overshoot -100%
Target sequence (P80244 whole entry, looked up): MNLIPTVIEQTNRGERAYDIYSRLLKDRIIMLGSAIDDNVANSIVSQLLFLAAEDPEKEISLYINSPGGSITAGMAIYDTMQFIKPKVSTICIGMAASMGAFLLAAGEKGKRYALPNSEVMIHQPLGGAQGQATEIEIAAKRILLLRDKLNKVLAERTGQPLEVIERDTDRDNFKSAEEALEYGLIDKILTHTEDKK
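Purified B. subtilis ClpP, 10 microg/mL final in Tris/HCl pH8 with KCl, BSA, glycerol and Tween-20, cleaved an Abz/nitrotyrosine-quenched decapeptide. Fluorescence (ex 320, em 430) was read at 0 and 20 min at room temperature. Delta was normalized to 5.8 microM ADEP and DMSO/no-enzyme controls.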
Starred values were filed as active, the others as inactive; & = joins results of further samples; [ ] = remark or other dose.

`CC(=O)N(c1ccc(N(C(C)=O)S(=O)(=O)c2cccs2)cc1)S(=O)(=O)c1cccs1` gave Menin MLL FP FL 2.6, PINK1 expr mod 2.6%, Sfp PPTase inh 3%, gsp antagonist inconclusive, gsp ag -49%[inhibitor], D2 agonist 0.4 and ClpP mod 1.8%.
Cc1ccc(Cl)cc1NC(=O)Nc1c(C)n(C)n(-c2ccccc2)c1=O was read as Menin MLL FP FL 0.4, PINK1 expr mod -0.6%&-0.1%, Sfp PPTase inh 18%, gsp antagonist -4%, gsp ag 14%[15.4 µM], D2 agonist -3.9 and ClpP mod 0.4%&0.4%.
`CC1Cc2ccccc2N1C(=O)Cn1cnc2ccccc21` (stereo unspecified) gave Menin MLL FP FL 6.1, PINK1 expr mod -0.5%, Sfp PPTase inh 6%, gsp antagonist -1%, gsp ag 3% and D2 agonist -0.2.
Screening CC(C)(C)c1nnc(SCC(=O)c2ccccc2)n(N)c1=O returned Menin MLL FP FL -1.1, PINK1 expr mod -0.3%, Sfp PPTase inh inconclusive, gsp antagonist -8%, gsp ag -63%, D2 agonist -6.8 and ClpP mod 1.0%.
Cc1ccc(-n2c(COc3ccccc3)n[nH]c2=S)cc1 was read as Menin MLL FP FL -1.8, PINK1 expr mod -0.8%, Sfp PPTase inh 3%, gsp antagonist -11%, gsp ag 15%[15.4 µM] and D2 agonist -4.6.
OC(c1ccc(Cl)c(F)c1)c1ncc(-c2ccc(F)cc2)[nH]1 (stereo unspecified) was read as PINK1 expr mod 0.3%, D2 agonist 0.6 and ClpP mod 1.7%.
N#CC1=C(SCc2ccccc2)NC2=C(C(=O)CCC2)C1c1ccc2c(c1)OCO2 (stereo unspecified) was read as Menin MLL FP FL 1.6, PINK1 expr mod -0.3%, Sfp PPTase inh inconclusive, gsp antagonist -9%, gsp ag inconclusive, D2 agonist 0.8 and ClpP mod 0.5%.
CCC(C)(CC(=O)N(C)CCC#N)c1ccccc1 (stereo unspecified) was read as Menin MLL FP FL -1.2, PINK1 expr mod 1.5%, Sfp PPTase inh 6%, gsp antagonist -7%, gsp ag -5%, D2 agonist -1.2 and ClpP mod -0.9%.
For Cc1ccccc1C(=O)N1CCC(C(=O)Nc2cc(C(F)(F)F)ccc2N2CCCC2)CC1 the results were PINK1 expr mod 0.1%, gsp antagonist -9%, gsp ag -36%[inhibitor], D2 agonist -1.5 and ClpP mod 1.6%.
Cc1ccc2nc(SCC(=O)Nc3ccc(F)cc3F)[nH]c2c1 was read as Menin MLL FP FL 4.3, PINK1 expr mod 5.2%, Sfp PPTase inh 13%, gsp antagonist -6%, gsp ag 7% and D2 agonist 1.7.
Screening Cc1ccc(CONC(=O)c2ccc(Cl)cc2)cc1 returned PINK1 expr mod 1.3%, gsp antagonist 10%, gsp ag -18%, D2 agonist 0.9 and ClpP mod -0.1%.
For CCOC(=O)c1nn2c(C(F)(F)F)cc(-c3ccc(OC)cc3)nc2c1Br the results were Menin MLL FP FL 17, PINK1 expr mod 18%, Sfp PPTase inh 0%, gsp antagonist -31%, gsp ag 24%, D2 agonist -1.2 and ClpP mod -0.8%.
Screening O=C1CC(N2CCN(c3ccccc3O)CC2)C(=O)N1Cc1ccccc1 (stereo unspecified) returned Menin MLL FP FL 5.6, PINK1 expr mod 1.6%, Sfp PPTase inh -2%, gsp antagonist 5%, gsp ag 26% and D2 agonist 1.8.
O=C(NNC(=S)Nc1ccccc1)NNC(=S)Nc1ccccc1 was read as Menin MLL FP FL 0.0, PINK1 expr mod 9.5%, Sfp PPTase inh 7%, gsp antagonist 3%, gsp ag 14%[15.4 µM] and D2 agonist -5.9.
Screening N#C/C(=N\Nc1ccc(S(=O)(=O)N2CCOCC2)cc1)C(N)=S returned Menin MLL FP FL 2.5, PINK1 expr mod -0.1%, Sfp PPTase inh 45µM*, gsp antagonist -21%, gsp ag 5%[15.4 µM] and D2 agonist -11.
`Cc1csc(=Nc2ccccc2)n1CCCN1CCCC1=O` gave Menin MLL FP FL 7.4, PINK1 expr mod -0.6%, Sfp PPTase inh -13%, gsp antagonist -13%, gsp ag 7%[15.4 µM] and D2 agonist 1.6.
Screening COc1ccc(-c2cc(C(F)(F)F)c3c(n2)sc2c(O)cc(=O)[nH]c23)c(OC)c1 returned Menin MLL FP FL inconclusive, PINK1 expr mod -0.9%, Sfp PPTase inh -19%, gsp antagonist -5%, gsp ag 3%, D2 agonist 2.0 and ClpP mod 0.1%.
Cc1cc(NC(=O)CSC2=NS(=O)(=O)c3cc(F)ccc3N2)no1 was read as PINK1 expr mod 0.1%, gsp antagonist 10%, gsp ag -3%[15.4 µM] and D2 agonist -2.3.
Screening Cc1ccc(-c2nnn(CC(=O)N(CC(=O)NCC3CCCO3)c3ccccc3)n2)o1 (stereo unspecified) returned Menin MLL FP FL 2.2, PINK1 expr mod 2.0%[38.3 µM], Sfp PPTase inh 7%, gsp antagonist -1%, gsp ag 15%, D2 agonist -0.4 and ClpP mod -3.1%.
CN(C(=O)COC(=O)c1cccc(S(=O)(=O)N2CCCCCC2)c1)C1CCS(=O)(=O)C1 (stereo unspecified) was read as PINK1 expr mod 0.9%, gsp antagonist 5%, gsp ag 5%, D2 agonist -4.1 and ClpP mod -3.1%.
Screening COc1ccccc1OCCn1cc(C=O)c2ccccc21 returned Menin MLL FP FL -6.5, PINK1 expr mod 3.8%, Sfp PPTase inh -3%, gsp antagonist 0%, gsp ag 5% and D2 agonist 8.7.
COc1cc(Cl)ccc1OC1(C)CCN(Cc2cccc(OC)c2OC)C1 (stereo unspecified) was read as PINK1 expr mod 16%, D2 agonist 2.0 and ClpP mod -0.3%.
Screening CC1C=CCC2C(=O)N(c3ccc(OC(=O)c4ccco4)cc3)C(=O)C12 (stereo unspecified) returned Menin MLL FP FL -4.8, PINK1 expr mod -0.3%, Sfp PPTase inh 20%, gsp antagonist 11%, gsp ag -24%, D2 agonist 0.1 and ClpP mod 0.1%.
O=c1oc2ccccc2c(NCc2ccccc2F)c1[N+](=O)[O-] was read as Menin MLL FP FL inconclusive, PINK1 expr mod 0.2%, Sfp PPTase inh 8%, gsp antagonist -7%, gsp ag 0%[15.4 µM], D2 agonist -2.2 and ClpP mod -16%.
For Cn1nc([N+](=O)[O-])c(C(C#N)c2ccccn2)c(Cl)c1=O (stereo unspecified) the results were Menin MLL FP FL -18, PINK1 expr mod 1.5%, Sfp PPTase inh -5%, gsp antagonist -5%, gsp ag 10%, D2 agonist 4.4 and ClpP mod -2.2%.
For O=C(O)C1CCc2sc3[nH]c(=S)n(-c4ccccc4)c(=O)c3c21 (stereo unspecified) the results were Menin MLL FP FL 6.1, PINK1 expr mod 0.0%, Sfp PPTase inh 25µM*, gsp antagonist 3%, gsp ag -2%[15.4 µM] and D2 agonist -4.8.
Screening COCC(=O)OCC(=O)Nc1cc(C)c(C)cc1[N+](=O)[O-] returned Menin MLL FP FL 0.6, PINK1 expr mod 0.2%, Sfp PPTase inh -8%, gsp antagonist inconclusive, gsp ag 14%[15.4 µM] and D2 agonist -2.8.
For Cc1cn([C@H]2C[C@H](O)[C@@H](CCC(=O)NC(c3ccccc3)c3ccccc3)O2)c(=O)[nH]c1=O the results were PINK1 expr mod 0.0%, gsp antagonist 13%, D2 agonist 0.6 and ClpP mod 2.0%.
Screening CC(C)C(=O)N1CCC1(C)C(=O)Nc1ccc(-n2cccc2)cc1 (stereo unspecified) returned PINK1 expr mod 0.2%, D2 agonist -1.2 and ClpP mod 0.8%.
Screening COc1ccc(CCNC(=O)CNCC2CCCO2)cc1OC (stereo unspecified) returned Menin MLL FP FL -1.8, PINK1 expr mod 7.4%[38.3 µM], Sfp PPTase inh 63µM*, gsp antagonist 6%, gsp ag -26%, D2 agonist -3.0 and ClpP mod -1.0%.
O=C(N/N=C/c1cccs1)c1cc(-c2cccc3ccccc23)n[nH]1 was read as Menin MLL FP FL -1.3, PINK1 expr mod -1.0%, Sfp PPTase inh 12%, gsp antagonist -22%, gsp ag -2%, D2 agonist 4.8 and ClpP mod 0.2%.
For CCOc1cc(/C=N/NC(=O)c2cccnc2)ccc1OCC(N)=O the results were Menin MLL FP FL 0.3, PINK1 expr mod 1.6%, Sfp PPTase inh 15%, gsp antagonist -1%, gsp ag 8%[15.4 µM] and D2 agonist -3.3.
`Nc1ccc(-c2cn3cccnc3n2)cc1` gave Menin MLL FP FL 3.6, PINK1 expr mod 0.4%, Sfp PPTase inh 19%, gsp antagonist -27%, gsp ag -27%[15.4 µM], D2 agonist -4.9 and ClpP mod -2.5%.
For O=C(COC(=O)c1ccc(Br)o1)NC12CC3CC(CC(C3)C1)C2 the results were PINK1 expr mod 2.6%, gsp antagonist -9%, gsp ag 1%, D2 agonist 0.9 and ClpP mod -3.3%.
`CC(=O)c1cccc(NC(=O)N2CCC(c3ccc(C)cc3)C2)c1` (stereo unspecified) gave Menin MLL FP FL 3.8, PINK1 expr mod 1.6%, Sfp PPTase inh -3%, gsp antagonist -5%, gsp ag -18%, D2 agonist 0.5 and ClpP mod 0.1%.
For Cc1cc(C)c2[nH]c(=O)c(C(c3nnnn3CC3CCCO3)N3CCCC(C)C3)cc2c1 (stereo unspecified) the results were Menin MLL FP FL 2.8, PINK1 expr mod 2.7%, Sfp PPTase inh 22µM*, gsp antagonist -11%, gsp ag 3%, D2 agonist -4.2 and ClpP mod -12%.
Screening Cc1ccc(C(=O)N/N=C/c2cc(Br)ccc2O)cn1 returned Menin MLL FP FL inconclusive, PINK1 expr mod 6.7%, Sfp PPTase inh 18%, gsp antagonist -1%, gsp ag -11%, D2 agonist 0.7 and ClpP mod -2.9%.

Compound activity: PubChem BioAssay, National Center for Advancing Translational Sciences (NCATS)

Random draw from the library. Share with any hit: about 5.1%.
